GLA inh pH 4.5 – qHTS Assay for Inhibitors of Human alpha-Galactosidase at pH 4.5; purified enzyme, 4-MU-alpha-Gal fluorescence, pH 4.5; activity change, negative = inhibition, % at 105 µM; 230,000 tested, under 10 active; AID 1467, 2008; inconclusive = small, poorly fitted or top-dose-only inhibition, or a rising curve; inactive = flat fitted curve, though single readings scatter; no compound was filed as active;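 further: 0% = full activity with enzyme and -100% = basal without enzyme; dose as in the result columns while the protocol names 77 µM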
Rango complex inh – qHTS Assay for Inhibitors of Rango (Ran-regulated importin-beta cargo) - Importin beta complex formation. Importin subunit beta-1 (Homo sapiens), Q14974. Rango CFP/YFP FRET sensor + importin beta, 45 min. Potency, µM (highest dose often 92.2 µM), for inactives: at the top dose inhibition of complex formation. hit rate 0.031% among 340,000; active = rising FRET ratio curve, often small or poorly fitted; inconclusive = mostly compound fluorescence or quenching in the first reads; inactive = flat curves in all reads;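 further: potency means the concentration at half of the fitted maximal effect; 0% = DMSO wells and 100% = buffer wells lacking importin beta; nearly all actives have a fitted effect of over 15% in size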
Target sequence (Q14974 whole entry, looked up): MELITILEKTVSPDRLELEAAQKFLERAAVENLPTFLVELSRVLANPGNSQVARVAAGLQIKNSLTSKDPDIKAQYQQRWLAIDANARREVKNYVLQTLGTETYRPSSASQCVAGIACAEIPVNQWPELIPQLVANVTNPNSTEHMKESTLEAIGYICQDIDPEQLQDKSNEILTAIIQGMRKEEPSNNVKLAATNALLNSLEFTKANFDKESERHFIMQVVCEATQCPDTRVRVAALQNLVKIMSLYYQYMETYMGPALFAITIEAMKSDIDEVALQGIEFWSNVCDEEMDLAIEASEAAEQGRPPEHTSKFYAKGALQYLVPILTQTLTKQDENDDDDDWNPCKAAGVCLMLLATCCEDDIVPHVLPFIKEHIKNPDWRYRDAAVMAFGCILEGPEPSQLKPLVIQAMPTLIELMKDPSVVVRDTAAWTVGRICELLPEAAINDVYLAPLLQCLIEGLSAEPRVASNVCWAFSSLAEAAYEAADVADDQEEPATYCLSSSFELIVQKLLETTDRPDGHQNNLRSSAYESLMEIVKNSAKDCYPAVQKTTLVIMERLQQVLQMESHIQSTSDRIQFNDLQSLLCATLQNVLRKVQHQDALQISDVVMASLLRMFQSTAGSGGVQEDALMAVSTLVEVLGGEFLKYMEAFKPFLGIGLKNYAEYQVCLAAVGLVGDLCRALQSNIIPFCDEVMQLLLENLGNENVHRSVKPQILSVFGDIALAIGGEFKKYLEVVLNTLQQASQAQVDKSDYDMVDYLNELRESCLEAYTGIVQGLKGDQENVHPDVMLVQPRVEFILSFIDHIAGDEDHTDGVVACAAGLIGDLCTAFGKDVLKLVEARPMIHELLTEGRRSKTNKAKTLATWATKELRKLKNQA
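FRET biosensor Rango (snurportin 1 IBB between N-terminal EYFP and C-terminal Cerulean), 50 nM in PBS/1 mM DTT/0.02% Tween-20/0.1% BSA, preincubated 5 min RT with compound; 0.125 microM importin beta added, 45 min RT, CFP/YFP FRET ratio read.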
miR-21 reporter – qHTS Assay for Modulators of miRNAs and/orActivators of miR-21. Potency, µM (top dose mostly 38.3 µM), for inactives: top-dose reporter change, positive = more light. 340,000 tested, under 10 active. HeLa miR-21 FLuc reporter, luciferase, 48 h; active = well fitted rising curve with a large enough effect; inconclusive = small, poorly fitted or top-dose-only effect; inactive = no such curve, though single readings can be large or run the other way;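 further: % of control where 0% means no effect; miR-21 action dims this reporter so a rising signal means less miR-21 action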
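Luminescence from a firefly luciferase reporter carrying a miR-21 binding site downstream, stably expressed under a CMV promoter in HeLa cells that make miR-21 endogenously, reports miRNA modulation after 48 h compound exposure up to approximately 40uM final.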
Rango release inh – qHTS Assay for Inhibitors of RanGTP induced Rango (Ran-regulated importin-beta cargo) - Importin beta complex dissociation; Snurportin-1 (Homo sapiens) + GTP-binding nuclear protein Ran (Homo sapiens) + Importin …; Biochemical FRET Rango-importin beta, RanGTP-induced dissociation; Potency, µM (highest dose often 46.1 µM), for the others: at the top dose activity change, negative = inhibition; hit rate 0.071% among 340,000; active means falling FRET ratio curve, often poorly fitted, with flat reads before Ran was added; inconclusive means other falling curves, or compound fluorescence or quenching; inactive means flat or rising ratio curve;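 further: potency means the concentration at half of the fitted maximal effect; % of control where 0% means no effect; nearly all actives have a fitted effect of over 45% in size; -100% = wells without RanGTP and RCC1; the record marks most hits as doubtful in a second field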
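Rango FRET biosensor (snurportin-1 IBB flanked by N-terminal EYFP and C-terminal CFP10) at 0.1 uM, with 0.25 uM importin beta in PBS, 1mM DTT, 0.02% Tween-20, 0.1% BSA. 0.6 uM Ran, 2mM GTP and 0.2 uM RCC1 were then added for 45 min at room temperature. Inhibition read as loss of FRET rise.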
* marks the source's active call; other numbers are inactive results.

What do the screens show for `CCOC(=O)CC(NS(=O)(=O)c1ccc(OC)c(C)c1)c1cccc([N+](=O)[O-])c1` (stereo not given)?
GLA inh pH 4.5: -15; Rango complex inh: -4.2%; miR-21 reporter: -2%; Rango release inh: 4%

How did Cc1cc(C)n(S(=O)(=O)c2cc(C)c(C)cc2C)n1 do in these assays?
GLA inh pH 4.5: 2; Rango complex inh: 0.5%; miR-21 reporter: 1%; Rango release inh: 2%

Results for CCOC(=O)N1CCN(C(=O)c2cc3cc(Br)ccc3oc2=O)CC1 ?
GLA inh pH 4.5: -4; Rango complex inh: -0.8%; miR-21 reporter: 6%; Rango release inh: 7%

How did C/C(=N\N=C1/NC(=O)C(C)S1)c1ccc([N+](=O)[O-])cc1 (stereo not given) do in these assays?
GLA inh pH 4.5: -5; Rango complex inh: 2.6%; miR-21 reporter: -40%; Rango release inh: -7%

Results for Cc1ccc(S(=O)(=O)N2CCCC2C(=O)NC2CCCCC2)cc1 (stereo not given) ?
GLA inh pH 4.5: 3; Rango complex inh: 6.7%; miR-21 reporter: -5%; Rango release inh: 4%

Results for CCn1ncc([N+](=O)[O-])c1C(=O)Nc1c(C)nn(Cc2ccc(F)cc2)c1C ?
GLA inh pH 4.5: -4; Rango complex inh: -1.5%; miR-21 reporter: -4%; Rango release inh: -2%

How did CCNNC(=O)C(O)(c1cccc(C)c1)c1cccc(C)c1 do in these assays?
GLA inh pH 4.5: 3; Rango complex inh: 3.6%; miR-21 reporter: 0%; Rango release inh: 1%

What do the screens show for `Oc1ccc(C[C@@H]2CNCCN2CCC23CC4CC(CC(C4)C2)C3)cc1`?
Rango complex inh: -1.4%; Rango release inh: -10%

How did CN(C(=O)C1CCC(=O)N(Cc2ccccc2F)C1)C1CCOCC1 (stereo not given) do in these assays?
Rango complex inh: 4.8%; miR-21 reporter: -5%; Rango release inh: -2%

How did CC(C)CC(=O)NC(=S)Nc1nc(-c2ccccc2)cs1 do in these assays?
GLA inh pH 4.5: 4; Rango complex inh: 5.1%; miR-21 reporter: -14%; Rango release inh: 9%

Results for COc1cccc(/C=C/C(=O)OCC(=O)N2CCCc3ccccc32)c1 ?
Rango complex inh: -1.7%; Rango release inh: -7%

What do the screens show for `Nc1cc(Cl)ccc1N1CCOCC1`?
GLA inh pH 4.5: 6; Rango complex inh: 0.3%; miR-21 reporter: -7%; Rango release inh: -2%

How did CCOc1ccc(N=Nc2c(=O)[nH]n3c(=O)c4c([nH]c23)CCCC4)cc1 do in these assays?
GLA inh pH 4.5: -10; Rango complex inh: 4.3%; miR-21 reporter: -10%; Rango release inh: -4%

How did O=C(Cc1cccs1)N1CCN=C1SCc1ccc(F)cc1 do in these assays?
GLA inh pH 4.5: -2; Rango complex inh: 5.4%; miR-21 reporter: -3%; Rango release inh: -2%

Results for Cc1cc(NC(=O)CSc2c[nH]c3ccccc23)no1 ?
Rango complex inh: -1.6%; miR-21 reporter: 8%; Rango release inh: 4%

What do the screens show for `Cc1ccc(-n2c(C)nnc2SCC(=O)N2CCc3ccccc3C2)cc1`?
GLA inh pH 4.5: -5; Rango complex inh: -2.7%; miR-21 reporter: -10%; Rango release inh: 0%

What do the screens show for `CCN(CC)C1CCN(C(=O)c2cc(COc3ccc(F)cc3Cl)on2)C1` (stereo not given)?
GLA inh pH 4.5: 4; Rango complex inh: 2.5%; miR-21 reporter: -25%; Rango release inh: -1%

What do the screens show for `CCOC(=O)C1=C(C)N=C2SC(C)C(=O)N2C1/C=C/c1ccccc1OC` (stereo not given)?
GLA inh pH 4.5: 5; Rango complex inh: -2.4%; miR-21 reporter: -2%; Rango release inh: 11%

What do the screens show for `CCOC(=O)c1nn(-c2ccccc2Cl)c(=O)cc1OCC(=O)Nc1cccc(OC)c1`?
Rango complex inh: 0.2%; Rango release inh: -16%

How did CCOc1ccc(NC(=O)CSc2nc3ccccc3c(=O)n2CCCC(=O)NCC2CCCO2)cc1 (stereo not given) do in these assays?
Rango complex inh: 2.5%; miR-21 reporter: 8%; Rango release inh: 4%

Random excerpt: 3 records from the list.
What do the screens show for `Nc1cc(Cl)ccc1N1CCOCC1`?
GLA inh pH 4.5: 6; Rango complex inh: 0.3%; miR-21 reporter: -7%; Rango release inh: -2%

How did Cc1cc(C)n(S(=O)(=O)c2cc(C)c(C)cc2C)n1 do in these assays?
GLA inh pH 4.5: 2; Rango complex inh: 0.5%; miR-21 reporter: 1%; Rango release inh: 2%

How did CN(C(=O)C1CCC(=O)N(Cc2ccccc2F)C1)C1CCOCC1 (stereo not given) do in these assays?
Rango complex inh: 4.8%; miR-21 reporter: -5%; Rango release inh: -2%

(list continues)
What do the screens show for `CC(C)(C)c1ccc(C(=O)NCc2nnc(SCC(=O)NCC3CCCO3)o2)cc1` (stereo not given)?
Rango complex inh: 0.1%; miR-21 reporter: 0%; Rango release inh: 23%

Results for Cc1cccc(NC(=O)c2ccccc2NC(=O)c2ccco2)c1 ?
Rango complex inh: 4.1%; miR-21 reporter: -18%; Rango release inh: 0%

What do the screens show for `Cc1cccc(-n2cnc3cc(C(=O)N4CCc5ccccc54)ccc32)c1`?
GLA inh pH 4.5: 1; Rango complex inh: -1.6%; miR-21 reporter: -14%; Rango release inh: -2%

How did Cc1ccc(CN2CCNC(=O)C2CC(=O)NCCCn2ncc3ccccc32)o1 (stereo not given) do in these assays?
GLA inh pH 4.5: -8; Rango complex inh: -5.9%; miR-21 reporter: 4%; Rango release inh: -9%

Results for CCOc1ccc(C2CC(c3c(O)c4ccccc4oc3=O)=NN2c2ccccc2)cc1OC (stereo not given) ?
GLA inh pH 4.5: -5; Rango complex inh: inconclusive; miR-21 reporter: 0%; Rango release inh: inconclusive

How did Cc1ccc(-c2nc(CNC(=O)c3ccco3)cs2)cc1 do in these assays?
Rango complex inh: 0.8%; miR-21 reporter: -24%; Rango release inh: inconclusive

Results for O=C1CN(C(=O)CN2C(=O)NC(c3ccccc3)(c3ccccc3)C2=O)c2ccccc2N1 ?
Rango complex inh: -4.7%; Rango release inh: 18%

What do the screens show for `COc1cc(CNCc2cccs2)ccc1OCC(N)=O`?
GLA inh pH 4.5: 2; Rango complex inh: -2.1%; miR-21 reporter: -1%; Rango release inh: -1%

What do the screens show for `COc1ccc(NC(=O)CN(C)C(=O)CCSc2ccc(C)cc2)cc1`?
Rango complex inh: 4.5%; Rango release inh: 0%

What do the screens show for `COc1ccc(-c2csc(N)n2)cc1`?
GLA inh pH 4.5: -12; Rango complex inh: 5.5%; miR-21 reporter: -49%; Rango release inh: -20%

How did COc1ccc(CNC(=O)C(C)OC(=O)c2cccc(N(C)C)c2)cc1 (stereo not given) do in these assays?
Rango complex inh: -3.7%; Rango release inh: -10%

How did Cc1nn(Cc2ccccc2Cl)c(C)c1NC(=O)CCCn1nc([N+](=O)[O-])c(Cl)c1C do in these assays?
GLA inh pH 4.5: -11; Rango complex inh: -0.3%; miR-21 reporter: -11%; Rango release inh: 3%

How did O=C1C2C3C=CC(C3)C2C(=O)N1c1cccc(-c2nc3ccccc3o2)c1 (stereo not given) do in these assays?
GLA inh pH 4.5: 7; Rango complex inh: 0.8%; miR-21 reporter: -4%; Rango release inh: -8%

Results for CCOC(=O)c1c(NC(=O)COc2ccc3ccc(=O)oc3c2)sc(C(=O)N(C)C)c1C ?
Rango complex inh: 3.4%; miR-21 reporter: 2%; Rango release inh: -11%

What do the screens show for `CCS(=O)(=O)NCC(c1cccnc1)N1CCN(c2ccc(OC)cc2)CC1` (stereo not given)?
GLA inh pH 4.5: 1; Rango complex inh: -2.2%; miR-21 reporter: -2%; Rango release inh: 16%

Results for COC(=O)CCC(=O)Nc1cccc2c(NC(=O)CCC(=O)OC)cccc12 ?
GLA inh pH 4.5: 4; Rango complex inh: 3.1%; miR-21 reporter: -10%; Rango release inh: -13%

How did O=C(NCCc1ccccc1)C1CCN(C(=O)c2ccc(F)cc2)CC1 do in these assays?
Rango complex inh: 8.8%; miR-21 reporter: -12%; Rango release inh: 3%

Results for CC(C)(C)NC(=O)C(c1ccc(F)cc1)N(Cc1ccco1)C(=O)CCC(=O)Nc1ccccn1 (stereo not given) ?
Rango complex inh: -2.6%; miR-21 reporter: -1%; Rango release inh: 12%

What do the screens show for `O=C(Nc1ccc(Cl)c(Cl)c1)C1CCCCC1`?
Rango complex inh: -4.7%; Rango release inh: 8%

How did CCCCOc1ccc(C(=O)NCCOc2cccc(OC)c2)cc1 do in these assays?
Rango complex inh: -0.8%; miR-21 reporter: -4%; Rango release inh: -4%

How did O=C(COC(=O)c1ccc(Cl)cc1O)NC(=O)C1CCCCC1 do in these assays?
GLA inh pH 4.5: -2; Rango complex inh: -0.3%; miR-21 reporter: 0%; Rango release inh: -2%

Results for O=C(NCCCn1ccnc1)c1cc(-c2ccc(Cl)cc2)nc2ccccc12 ?
GLA inh pH 4.5: -11; Rango complex inh: 0.9%; miR-21 reporter: -5%; Rango release inh: -25%

How did O=C(CCNS(=O)(=O)c1ccc(OC(F)(F)F)cc1)N1CCN(S(=O)(=O)c2cccc(F)c2)CC1 do in these assays?
Rango complex inh: -2.5%; Rango release inh: -8%

What do the screens show for `CCOc1ccc(-c2nc(C#N)c(NCc3ccco3)o2)cc1`?
GLA inh pH 4.5: -9; Rango complex inh: -1.0%; miR-21 reporter: -21%; Rango release inh: -8%

How did Cc1ccc(C(=O)N/N=C/c2ccc(-c3cccc(Cl)c3)o2)cn1 do in these assays?
GLA inh pH 4.5: -10; Rango complex inh: 0.6%; miR-21 reporter: 29%; Rango release inh: 26%

Results for O=C(Cc1ccccc1)N/N=C/c1cc(Br)cs1 ?
Rango complex inh: 1.3%; miR-21 reporter: -12%; Rango release inh: 2%

How did CCc1c(C(=O)Nc2cc(C)ccc2OC)[nH]c(C)c1C(C)=O do in these assays?
GLA inh pH 4.5: 1; Rango complex inh: -4.5%; miR-21 reporter: -7%; Rango release inh: -11%

How did COc1cc(NC(=O)c2cc3c(C)nc4ccccc4c3o2)cc(OC)c1OC do in these assays?
GLA inh pH 4.5: -12; Rango complex inh: -2.1%; miR-21 reporter: 9%; Rango release inh: 15%

How did O=C(NCCN1C(=O)S/C(=C\c2ccc(Cl)cc2)C1=O)C1=COCCO1 do in these assays?
Rango complex inh: -1.5%; Rango release inh: -1%

Results for CCOc1ccc(N2C(=O)c3cccnc3C2Nc2ccc(F)cc2)cc1 (stereo not given) ?
GLA inh pH 4.5: 3; Rango complex inh: -1.5%; miR-21 reporter: -12%; Rango release inh: 8%

What do the screens show for `COc1ccc(NC(=O)NC2CCCc3ccccc32)cc1` (stereo not given)?
Rango complex inh: -0.5%; miR-21 reporter: -1%; Rango release inh: -3%

What do the screens show for `CCOC(=O)C1=C(N)N2C(=O)C(C)SC2=C(C(=O)OCC)C1c1ccc(O)cc1` (stereo not given)?
GLA inh pH 4.5: -6; Rango complex inh: -2.3%; miR-21 reporter: 5%; Rango release inh: -7%

Results for NS(=O)(=O)c1ccc(Nc2nc(-c3ccc(O)cc3O)cs2)cc1 ?
GLA inh pH 4.5: -12; Rango complex inh: -1.7%; miR-21 reporter: -15%; Rango release inh: 2%

What do the screens show for `Cc1cccc(C(=O)N2[C@@H](C(C)C)COc3cc(Br)ccc3S2(=O)=O)c1`?
Rango complex inh: -1.1%; Rango release inh: 6%

How did O=C(CSc1nnc(CNc2ccc(F)cc2)n1Cc1ccco1)NC1CC1 do in these assays?
GLA inh pH 4.5: -1; Rango complex inh: inconclusive; miR-21 reporter: 0%; Rango release inh: -5%

How did COc1ccc(CNC(=O)CN(Cc2ccc(OC)cc2)C(=O)CCC(=O)Nc2nccs2)cc1 do in these assays?
Rango complex inh: inconclusive; miR-21 reporter: 4%; Rango release inh: 12%

Screens as filed in PubChem BioAssay.

An excerpt (hit frequency here may not be typical).
